HPGD block – inhibitors of human 15-hydroxyprostaglandin dehydrogenase (HPGD); P15428; purified HPGD, NADH fluorescence kinetic, PGE2 substrate; Potency, µM, inactives show at the top dose activity change, negative = inhibition, actives largely listed as inhibitors; 150,000 compounds, 4.3% hits; AID 894; active = well fitted inhibition curve with a large enough effect (not every such curve was filed as active); inconclusive = small, poorly fitted or top-dose-only effect, or another doubt; inactive = no such curve, though single readings can be large or run the other way;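 also: top concentration of the series not given in the record; plate controls included wells without enzyme; inactives centre near -10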
Target sequence (P15428 whole entry, looked up): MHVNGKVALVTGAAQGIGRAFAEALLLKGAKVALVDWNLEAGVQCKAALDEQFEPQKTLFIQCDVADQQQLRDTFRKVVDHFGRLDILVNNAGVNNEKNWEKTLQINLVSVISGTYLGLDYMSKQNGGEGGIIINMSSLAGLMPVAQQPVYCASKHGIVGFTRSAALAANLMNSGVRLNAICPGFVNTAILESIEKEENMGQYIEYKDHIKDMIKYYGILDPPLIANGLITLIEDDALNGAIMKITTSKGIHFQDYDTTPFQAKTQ
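NADH formation kinetics: reaction with 30 uM PGE2 and 1 mM NAD+ (final), 20 nM enzyme, Tris-HCl pH 8 with Tween 20, after 15 min compound preincubation at room temperature. Fluorescence change, last versus first of five reads.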
The depositor's hits bear a star; ? = inconclusive; & = joins results of further samples. % is scaled to controls: 0 for no effect and ±100 for the full control effect; potency is read from the fitted curve at half-maximal effect. Some of the compounds tested. The share of hits here may be higher or lower than overall.

entry | molecule | HPGD block
1 | COc1ccc(-c2cc(C(F)(F)F)nc(N3CCN(c4ccc(F)cc4)CC3)n2)cc1OC | -14%
2 | CC(C)(C)NC(=O)CCN(/N=C/c1ccc([N+](=O)[O-])o1)C1=NS(=O)(=O)c2ccccc21 | -3%
3 | Cc1cccc(NC(=O)CSc2nc(C)nc3c2c(=O)n(C)c(=O)n3C)c1 | -8%
4 | CC(C)C(C)(C#N)NC(=O)CSc1nnc(-c2ccccc2)o1 (stereo unspecified) | 0%
5 | CCCCCCCCC(=O)N/N=C/c1cccc(Br)c1 | -6%
6 | CCOC(=O)COc1ncn(-c2ccccc2)n1 | -4%
7 | Fc1ccc(Nc2nc(-c3ccncc3)nc3ccccc23)cc1F | ?
8 | CN1C[C@H](C(=O)N[C@@]2(C)O[C@@]3(O)C4CCCN4C(=O)C(Cc4ccccc4)N3C2=O)C[C@H]2c3cccc4[nH]cc(c34)C[C@H]21 (stereo partly specified) | -9%
9 | CC1CC(C(F)F)n2nc(C(=O)Nc3sc4c(c3C#N)CCC(C(C)(C)C)C4)nc2N1 (stereo unspecified) | ?
10 | COC(=O)Cc1ccc(NC(=O)c2ccc(C)c(C)c2)cc1 | -8%
11 | CC1CCC(NC(=O)c2ccc(CNc3c(NC4CCCCC4)c(=O)c3=O)cc2)CC1 (stereo unspecified) | ?
12 | Cc1cc(O)c(C=O)c(O)c1C(=O)O | -9%
13 | Cc1cc(C)n(-c2nc3ccccc3nc2Nc2ccc3[nH]c(=O)[nH]c3c2)n1 | -18%
14 | O=C(NCc1ccc(F)cc1)C(=O)NCC1OCCN1C(=O)c1cccs1 (stereo unspecified) | -2%
15 | CCCNC(=O)c1cc(C)no1 | -6%
16 | CCOC(=O)C1CCCN(CCC(=O)Nc2c(C(=O)OC)[nH]c3cc(OC)ccc23)C1 (stereo unspecified) | -10%
17 | Cc1cc(NC(=O)CSc2nnc(-c3cccnc3)n2N)no1 | -8%
18 | Cn1cccc1C(=O)N1CCC[C@@]2(CCN(Cc3ccc(C#N)cc3)C2)C1 | -15%
19 | COc1ccc(CCNC(=S)Nc2ccc(C)cc2C)cc1 | 1%
20 | Cc1cc2c(cc(C(=O)OCC(=O)NCc3cccs3)n2C(C)C)o1 | -21%

Next part
entry | molecule | HPGD block
21 | CN(C)/C=C1\C(=O)N(c2ccc([N+](=O)[O-])cc2)N=C1c1ccccc1 | -13%
22 | Cc1ccc(OCCn2nc3ccccc3n2)c(C)c1 | -25%
23 | Cc1c(C(=O)NCC2CCCO2)oc2ccc3c(c12)C(=O)CC(C)(C)O3 (stereo unspecified) | ?
24 | O=C1c2cccc3cccc(c23)C(=O)N1c1ccc2ncccc2c1 | -14%
25 | COC(=O)Cc1c(C)nc2nc(-c3cccnc3)[nH]n2c1=O | -10%
26 | O=C(Cn1cccc1)Nc1ccc(F)cc1F | -22%
27 | Cc1ccc(C(=O)Cn2c(NCCO)nc3ccccc32)cc1 | -3%
28 | Cc1c(C(=O)Nc2ccc(F)c(F)c2)oc2ccc(S(=O)(=O)N3CCCCC3)cc12 | -30%
29 | O=C(CSc1ccc(Cl)cc1)N1CCOCC1 | -7%
30 | COC(=O)c1c(NC(=O)C2CC=CCC2C(=O)O)sc(C)c1C (stereo unspecified) | -28%
31 | Cc1ccc(Nc2nc(C(=O)N3CCC(C(=O)NCCN4CCOCC4)CC3)cs2)cc1 | -10%
32 | O=C(CNC(=O)C(c1ccccc1)c1ccccc1)OCC(=O)c1cccs1 | -24%
33 | CC(=O)c1cccc(NC(=O)COc2ccccc2)c1 | -9%
34 | O=C(Nc1ccc(S(=O)(=O)NCc2cccnc2)cc1)c1ccccc1Cl | -19%
35 | CC1CN(S(=O)(=O)N(C)C)CCN1S(=O)(=O)N(C)C (stereo unspecified) | -12%
36 | CCCCNC(=O)CSc1nccn1Cc1ccccc1 | ?
37 | CC(C)(C)c1csc(NC(=O)CSc2nc3ccccc3c(=O)[nH]2)n1 | ?
38 | Cc1ccc(N/C(CSC(N)=O)=N/S(=O)(=O)c2ccccc2)cc1 | -7%
39 | COCON1C(=O)CN(C(C)=O)C1c1ccc(Cl)cc1Cl (stereo unspecified) | -10%
40 | CC12CC[C@@](C(=O)O)(C(=O)C1=O)C2(C)C | 0%

An excerpt from above in order of number of heavy atoms, highest first:
entry | molecule | HPGD block
34 | O=C(Nc1ccc(S(=O)(=O)NCc2cccnc2)cc1)c1ccccc1Cl | -19%
25 | COC(=O)Cc1c(C)nc2nc(-c3cccnc3)[nH]n2c1=O | -10%
33 | CC(=O)c1cccc(NC(=O)COc2ccccc2)c1 | -9%
29 | O=C(CSc1ccc(Cl)cc1)N1CCOCC1 | -7%

Later entries:
entry | molecule | HPGD block
41 | COc1cccc(NC(=O)Cn2cc3c(n2)CCCCC3)c1 | -16%
42 | Cc1nn2c(-c3ccccc3)c(-c3ccccc3)nc2[nH]c1=O | -25%
43 | CN(C)CCSc1nnc2[nH]c3ccccc3c2n1 | -16%
44 | CC(C)Cn1cnc2c1c(=O)n(CC(=O)Nc1ccc3c(c1)OCO3)c(=O)n2Cc1ccccc1 | -7%
45 | CCNC(=S)N=Nc1c(O)n(Cc2ccc(Cl)cc2)c2ccccc12 | -22%
46 | Cc1cc2c3c(c1)C1(C(=O)N3C(C)(C)CC2C)C(C#N)=C(N)Oc2n[nH]c(C)c21 (stereo unspecified) | 1%
47 | CC(c1ccco1)N(C(=O)COc1ccc(Cl)cc1Cl)c1ccccn1 (stereo unspecified) | -9%
48 | COc1cccc(CNCCO)c1OCc1ccccc1Cl | -1%
49 | CS(=O)(=O)N1CCN(C(=O)C(Sc2ccccc2)c2ccccc2)CC1 (stereo unspecified) | -14%
50 | Cc1ccc(N2CCN(S(=O)(=O)N3CCCCC3)CC2)cc1Cl | -2%
51 | Oc1c(C=C2N=c3ccccc3=N2)sc(=S)n1C1CCCCC1 | -8%&-11%
52 | COc1ccc(NC(=O)NS(=O)(=O)c2ccc(C)cc2)c(OC)c1 | -6%
53 | CN(C)c1ccc(C(=S)N2CCNCC2)cc1 | -11%
54 | Cn1c(CN2CCC(C(N)=O)CC2)c(C#N)c2ccccc21 | -9%
55 | O=C(COC(=O)c1cccs1)NCc1ccccc1 | ?
56 | COc1ccc(Cl)cc1NC(=O)CN(C1CCCCC1)S(C)(=O)=O | 1%
57 | Cc1ccc(NC(=O)CN(C)S(=O)(=O)c2cccs2)cc1C | 1%
58 | CSCC[C@H](NC(=O)OC(C)(C)C)C(=O)N/N=C/c1c(C)[nH]c(=O)[nH]c1=O | -9%
59 | COc1ccc(NS(=O)(=O)c2cc(NC(=O)Cc3cccs3)ccc2C)cc1 | -29%
60 | N#Cc1nc(COc2ccccc2F)oc1NCCc1ccccc1 | 13µM*

Ordered by value in HPGD block (descending): six of the compounds above
entry | molecule | HPGD block
57 | Cc1ccc(NC(=O)CN(C)S(=O)(=O)c2cccs2)cc1C | 1%
44 | CC(C)Cn1cnc2c1c(=O)n(CC(=O)Nc1ccc3c(c1)OCO3)c(=O)n2Cc1ccccc1 | -7%
58 | CSCC[C@H](NC(=O)OC(C)(C)C)C(=O)N/N=C/c1c(C)[nH]c(=O)[nH]c1=O | -9%
49 | CS(=O)(=O)N1CCN(C(=O)C(Sc2ccccc2)c2ccccc2)CC1 (stereo unspecified) | -14%
41 | COc1cccc(NC(=O)Cn2cc3c(n2)CCCCC3)c1 | -16%
59 | COc1ccc(NS(=O)(=O)c2cc(NC(=O)Cc3cccs3)ccc2C)cc1 | -29%

Part of the list above, with the structure last:
no. | HPGD block | Structure
43 | -16% | CN(C)CCSc1nnc2[nH]c3ccccc3c2n1
53 | -11% | CN(C)c1ccc(C(=S)N2CCNCC2)cc1
51 | -8%&-11% | Oc1c(C=C2N=c3ccccc3=N2)sc(=S)n1C1CCCCC1
47 | -9% | CC(c1ccco1)N(C(=O)COc1ccc(Cl)cc1Cl)c1ccccn1 (stereo unspecified)

Remaining list, next part.
entry | molecule | HPGD block
61 | Cc1nc(CN2CCN(C(=O)NC3(c4ccccc4)CC3)CC2)cs1 | -1%
62 | CC(=O)c1cccc(NC(=O)c2cnn3ccccc23)c1 | -30%
63 | O=C(Nc1ccccc1)N1CC2(CCN(C(=O)c3cc(C(F)(F)F)cc(C(F)(F)F)c3)CC2)C1 | -2%
64 | Cc1ccc(S(=O)(=O)NCC(=O)NC2CCCCCC2)cc1 | -4%
65 | Fc1ccc(CN2CCCCCCC2)cc1F | -6%
66 | O=C(N/N=C/c1cc([N+](=O)[O-])ccc1O)NC12CC3CC(CC(C3)C1)C2 | -5%
67 | N#Cc1c(N)nc2c(c1-c1ccc(Br)s1)CCCC2 | 16%
68 | COC(=O)CCCC1=CC2=C(c3ccccc3)C(=O)C(C)(OC(=O)C3CCCC3)C(=O)C2=CN1C1CC1 (stereo unspecified) | -7%
69 | CCn1cc(/C=C(/C#N)S(=O)(=O)c2ccccc2)cn1 | ?
70 | O=C(Nc1ccccc1)N1CC[C@@]2(CCCN(C(=O)c3cnccn3)C2)C1 | -8%
71 | COc1ccc(NC(=O)c2sc(SC)nc2N)cc1 | -7%
72 | S=c1[nH]nc(-c2ccco2)n1/N=C/C=C/c1ccccc1 | 14µM*
73 | O=C(COC(=O)C1CC2C=CC1C2)NCc1ccc(F)cc1 (stereo unspecified) | -8%
74 | COc1ccc(Cl)cc1NS(=O)(=O)c1ccc(OC)c(OC)c1 | -17%
75 | O=C(CCN1C(=O)c2ccccc2C1=O)Nc1ccc(-c2nc3ccccc3o2)cc1 | ?
76 | CC(C)C(=O)Nc1cccc(NC(=O)c2cccnc2)c1 | -14%
77 | Cc1csc2ncc(C(=O)Nc3ccccc3F)c(=O)n12 | ?
78 | O=C(NCCCOc1cccc(CN2CCCCC2)c1)c1ccc(Cl)c(Cl)c1 | -7%
79 | CS(=O)(=O)NCc1nnc(SCc2ccccc2C(F)(F)F)o1 | -11%
80 | O=C(NCc1cccs1)c1cc2c(s1)CCCC2 | ?

The list continues:
entry | molecule | HPGD block
81 | O=[N+]([O-])c1cc(C(F)(F)F)ccc1NCCCCNS(=O)(=O)c1ccc(Cl)cc1 | -12%
82 | O=S1(=O)CC(O)C(Nc2ccccc2)C1 (stereo unspecified) | 4%
83 | CCS(=O)(=O)Nc1ccc(Cc2ccncc2)cc1 | 1.3µM*
84 | CCc1ccc2oc(-c3cc(N)ccc3O)nc2c1 | -16%
85 | COc1ccc(CCN2CC(C(=O)O)CC2=O)cc1OC (stereo unspecified) | -8%
86 | COc1ccc(NC(=O)Nc2nnc(-c3ccccc3SCc3ccccc3)s2)cc1 | -4%
87 | CCN1CCN(Cc2c(O)ccc3c2O/C(=C\C=C\c2ccccc2)C3=O)CC1 | ?
88 | O=C(COC(=O)c1ccc(NS(=O)(=O)c2ccc3c(c2)OCCO3)cc1)NCC1CCCO1 (stereo unspecified) | -22%
89 | CCn1nnnc1-c1ccc(OC)c(S(=O)(=O)Nc2ccc(C(=O)OC)cc2)c1 | -8%
90 | Cc1cccc(C)c1Nc1oc(-c2ccccc2)nc1-c1ccccc1F | -1%
91 | Cc1cn(C(=O)c2ccccc2)c(=S)n1-c1ccc(Br)cc1 | ?
92 | COc1ccc(CNC(=S)N/N=C/c2ccc(OC)c(OC)c2)cc1 | 22µM*
93 | Cn1c(-c2ccccc2)cnc1SCC(N)=O | -5%
94 | COc1cc(OC)cc(-n2nnnc2SCC(=O)NCc2ccc3c(c2)OCO3)c1 | -12%
95 | COc1ccc2[nH]c(C)c(C(=O)CN(C)C)c2c1 | -15%
96 | CCN1C(=O)/C(=C/c2cnn(CC)c2C)SC1=S | -15%
97 | O=C(Nc1ccccc1)c1cc2ccccc2c(=O)s1 | -22%
98 | Nc1nc(Cn2nnc(-c3ccccc3F)n2)nc(N2CCOCC2)n1 | -23%
99 | O=C(CCCC(=O)N(CC(=O)NC1CCCCC1)Cc1ccc2c(c1)OCO2)Nc1ccccn1 | -4%
100 | COc1ccc(NS(=O)(=O)c2ccc(-n3nnc4ccccc43)c([N+](=O)[O-])c2)cc1 | -24%

(continued)
entry | molecule | HPGD block
101 | COc1ccc(C(=O)Nc2ccc(N3CCCCC3)cc2)cc1Br | -11%
102 | Cc1cc(C)c2c(-n3cccc3)c(C(=O)NNS(=O)(=O)c3ccc(F)cc3)sc2n1 | -3%
103 | CCOC(=O)C1CCCN(C(=O)C2CCN(S(=O)(=O)CC)CC2)C1 (stereo unspecified) | -6%
104 | CN(C)c1ccc(C2N(c3ccc(Cl)cc3)C(=O)C3CCCN32)cc1 (stereo unspecified) | -16%
105 | COc1ccc2c3c(cccc13)C(=O)N(O)C2=O | -15%

In a second layout: results already given.
entry | HPGD block | mol
68 | -7% | COC(=O)CCCC1=CC2=C(c3ccccc3)C(=O)C(C)(OC(=O)C3CCCC3)C(=O)C2=CN1C1CC1 (stereo unspecified)
46 | 1% | Cc1cc2c3c(c1)C1(C(=O)N3C(C)(C)CC2C)C(C#N)=C(N)Oc2n[nH]c(C)c21 (stereo unspecified)
94 | -12% | COc1cc(OC)cc(-n2nnnc2SCC(=O)NCc2ccc3c(c2)OCO3)c1
2 | -3% | CC(C)(C)NC(=O)CCN(/N=C/c1ccc([N+](=O)[O-])o1)C1=NS(=O)(=O)c2ccccc21

High-throughput results (PubChem BioAssay)
